# GALR2 agonist: agonists of human galanin receptor 2 (GALR2); GALR2-expressing cells, agonist activation read-out; AID 803; 140,000 tested, 0.48% active; O43603; activation, %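 (tested at 5 µM)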;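 active = above mean plus 3 SD of all compounds, about 5% in these data, not always enough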;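 note: 0% = vehicle buffer wells and 100% = reference agonist at full effect; tested in CHO reporter cells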
# Target sequence (O43603 whole entry, looked up): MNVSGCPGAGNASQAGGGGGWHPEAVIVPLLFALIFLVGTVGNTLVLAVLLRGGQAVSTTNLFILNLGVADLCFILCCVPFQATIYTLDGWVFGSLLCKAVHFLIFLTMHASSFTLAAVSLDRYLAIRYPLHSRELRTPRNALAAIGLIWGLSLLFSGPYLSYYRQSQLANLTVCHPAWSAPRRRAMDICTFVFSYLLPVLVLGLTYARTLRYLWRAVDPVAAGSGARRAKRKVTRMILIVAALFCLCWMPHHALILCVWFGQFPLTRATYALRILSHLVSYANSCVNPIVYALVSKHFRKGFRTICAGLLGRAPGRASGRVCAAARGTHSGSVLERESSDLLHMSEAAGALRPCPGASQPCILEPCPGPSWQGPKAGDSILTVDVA
# INS promoter inh: TRM-6 insulin promoter activity inhibition; TRM-6 cells (human fetal islet line), insulin promoter-eGFP reporter, imaging; reporter expression induced with tamoxifen; inhibition, % at 2 µM; 130,000 tested, 0.9% active;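 active = inhibition above the mean plus 3 SD, with well images judged a real hit on visual review, cut at about 60% in these data, passing the limit was not always enough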
# RGS16-Gao: RGS16-Galphao interaction regulator (human); 220,000 tested, 0.38% active; bead-based flow cytometry RGS16-Galphao binding, fluorescence; actives lie on both sides; AID 1441; binding response (% of control), % at 10 µM; O15492+P09471;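 active = below 25% or above 175%, edge rows of some plates excepted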;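 note: Galphao activated by GDP with aluminum fluoride before binding; 100% = wells without compound and 0% = beads without RGS; some results beyond the cut were filed as inactive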
# Target sequence (O15492 whole entry, looked up): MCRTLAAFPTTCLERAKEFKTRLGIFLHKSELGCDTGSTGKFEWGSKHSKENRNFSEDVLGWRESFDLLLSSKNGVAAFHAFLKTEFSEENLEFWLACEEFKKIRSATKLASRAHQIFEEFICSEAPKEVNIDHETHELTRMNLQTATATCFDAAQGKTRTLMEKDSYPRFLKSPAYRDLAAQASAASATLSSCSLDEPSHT
# Target sequence (P09471 whole entry, looked up): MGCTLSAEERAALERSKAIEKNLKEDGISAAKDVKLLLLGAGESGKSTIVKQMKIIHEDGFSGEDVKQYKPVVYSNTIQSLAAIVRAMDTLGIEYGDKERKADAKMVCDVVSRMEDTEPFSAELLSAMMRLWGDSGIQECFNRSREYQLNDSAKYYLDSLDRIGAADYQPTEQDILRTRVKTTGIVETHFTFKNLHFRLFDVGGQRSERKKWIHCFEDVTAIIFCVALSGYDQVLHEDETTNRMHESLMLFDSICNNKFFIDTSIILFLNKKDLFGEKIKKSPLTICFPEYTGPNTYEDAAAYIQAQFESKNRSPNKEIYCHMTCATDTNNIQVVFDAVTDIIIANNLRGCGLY
# HSV augment: HSV replication enhancement; 220,000 tested, 0.005% active; AID 1956; maximum fold increase; HSV replication augmentation in cells, fold increase;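 active = peak rise of 1.5-fold or more in the series; tested in PC3 cells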;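 note: first round at 10 µM; read as green reporter fluorescence; hits show the peak of a series up to 25 µM; 1 = signal of infected wells without compound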
# PKD1 inh: blocks activity of human protein kinase D1; Q15139; AID 797; 200,000 tested, 0.056% active; PKD1 kinase fluorescence polarization assay; inhibition, %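 (about 10 µM by stock and volumes)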;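 active = inhibition of 50% or more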;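 note: controls were vehicle for no effect and a reference inhibitor for full effect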
# INS promoter inh cell count: also measured in INS promoter inh; calls as there; normalized cell count, %; measured here: cell count, toxicity; reference of the scale not given here;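 cells exposed to compound for 48 h; stained nuclei by imaging scaled within each plate; lower means fewer cells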
# HSV augment primary fold: further read-out of HSV augment, marked with its call; fold increase; compound at 10 µM; measured here: primary screen fold increase 10 uM; tested in PC3 cells;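 GFP signal in the first replicate; 1 = infected wells without compound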
# An asterisk follows results filed as active; i = inactive; x = not tested or not shown.
SMILES,GALR2 agonist,INS promoter inh,INS promoter inh cell count,RGS16-Gao,HSV augment,HSV augment primary fold,PKD1 inh
COc1ccccc1NC(=O)CSc1nnc(-c2ccoc2C)n1CC1CCCO1 (stereo unspecified),-1.2,20,72,86,i,0.99,9
COCC1CCN(Cc2nc(-c3ccc(OC)cc3)no2)CC1,x,x,x,91,i,0.9,4
COc1cc(-c2[nH]ncc2CN2CCc3sccc3C2)cc(OC)c1OC,x,x,x,100,i,1.1,0
O=C(Nc1ccccc1)C1=C[C@@H](C2CCCCC2)C[C@@H](OCCCCO)O1,x,x,x,87,i,0.92,-5
CC(=O)Oc1ccc(-c2csnn2)cc1,-2.5,-34,131,100,i,0.93,28
CCNC(=S)N/N=C/c1ccc(C(=O)O)cc1,x,30,99,104,i,0.99,2
Cc1ncoc1C(=O)Nc1nccs1,-0.7,-7,121,104,i,1.2,-7
CCC(C)n1c(-c2cccc(S(=O)(=O)N(CC)CC)c2)n[nH]c1=S (stereo unspecified),x,x,x,102,i,0.96,7
CCOc1ccccc1CN1C(=O)c2ccccc2C1C(=O)NCC1CCCO1 (stereo unspecified),-1.9,50,96,102,i,0.97,-9
O=c1cc(N2CCN(Cc3ccccc3)CC2)[nH]c(=O)n1-c1ccc(Br)cc1,-1.8,x,x,107,i,0.97,-11
Cc1ccc(S(=O)(=O)NCCCN2CCOCC2)cc1C,-3.2,-41,87,103,i,0.98,4
CCOC(=O)c1nnn(CC(=O)Nc2cccc(Cl)c2C)c1C(=O)OCC,0.5,-7,140,105,i,0.91,5
CSc1ccccc1NC(=O)CCn1c(=O)sc2ccccc21,-0.6,-39,100,98,i,0.93,0
CCOc1cc(C)c(S(=O)(=O)Nc2ccc3cn[nH]c3c2)cc1C,-0.7,x,x,99,i,0.97,10
C1=C(CCNc2ncnc3c2cnn3-c2ccccc2)CCCC1,x,x,x,106,i,0.95,x
CCOC(=O)c1[nH]c(C)c(C(=O)NCCCN2CCOCC2)c1C,-1.4,x,x,106,i,0.85,-15
COc1ccc(CNC(=O)C2CCCN(S(=O)(=O)c3c(C)n[nH]c3C)C2)cc1 (stereo unspecified),-3.6,-19,69,103,i,0.96,-1
CC(=O)Nc1c(C)nn(-c2ccc(C)c(C)c2)c1C,-2.8,x,x,98,i,0.9,7
COc1cccc(C(=O)N/N=C2/SCC(=O)N2CCc2ccc(OC)c(OC)c2)c1,-1.0,-4,78,105,i,1,-14
Cc1ccc(NS(=O)(=O)c2ccc(C(=O)N3CCN(c4ccccn4)CC3)cc2)cc1,-1.9,13,114,102,i,1,-9
COc1ccc(CCNC(=O)c2ccc(CN3CCOCC3)cc2)cc1,-0.8,-69,92,109,i,0.94,-4
COc1ccc(OC)c(/C=N/NC(=O)c2cc3c(OC)cc(OC)cc3[nH]2)c1,x,x,x,98,i,0.87,x
O=C(NN=C1CCCC1)c1ccccc1OCCOc1ccccc1,x,x,x,104,i,0.86,10
CC1(C)NC(C)(C)C(O)(C(N)=O)C1=O (stereo unspecified),-0.8,-18,69,112,i,1.2,1

# Laid out differently: four of the compounds above.
# Values run as follows: GALR2 agonist, INS promoter inh, INS promoter inh cell count, RGS16-Gao, HSV augment, HSV augment primary fold, PKD1 inh
COc1ccc(CCNC(=O)c2ccc(CN3CCOCC3)cc2)cc1
  -0.8, -69, 92, 109, i, 0.94, -4
COc1cccc(C(=O)N/N=C2/SCC(=O)N2CCc2ccc(OC)c(OC)c2)c1
  -1.0, -4, 78, 105, i, 1, -14
CSc1ccccc1NC(=O)CCn1c(=O)sc2ccccc21
  -0.6, -39, 100, 98, i, 0.93, 0
COc1cc(-c2[nH]ncc2CN2CCc3sccc3C2)cc(OC)c1OC
  x, x, x, 100, i, 1.1, 0

# Further compounds
SMILES,GALR2 agonist,INS promoter inh,INS promoter inh cell count,RGS16-Gao,HSV augment,HSV augment primary fold,PKD1 inh
Cc1ccc2nc(N3CCN(c4cccc(C)c4C)CC3)c3nnnn3c2c1,-0.8,x,x,104,i,1.1,0
COC(=O)C1=C(C)N(c2ccc(C)cc2)/C(=C/c2ccc(O)cc2)C1=O,x,0,100,101,i,0.87,1
CCc1ccc(OCC(=O)Nc2cccc3nsnc23)cc1,x,37,117,106,i,0.99,-6
Clc1ccc(-n2nnnc2Sc2ncnc3sccc23)cc1,-2.2,68,24,x,i,0.75,-7
Cn1c(=O)c2c(-c3ccc(OC(F)F)cc3)cc(-c3ccccc3)nc2n(C)c1=O,x,x,x,102,i,0.93,x
Cc1cc(CSc2ccccc2)ccc1NC(=O)COc1ccccc1C,-2.0,x,x,102,i,0.95,5
CCCNC(=O)NC(=O)CSc1nc2ccccc2n1CC(C)C,-0.6,x,x,92,i,0.83,14
O=C(NCc1ccc2c(c1)OCO2)C(=O)NCC(c1ccco1)N1CCN(c2ccccc2)CC1 (stereo unspecified),x,x,x,101,i,0.88,3
CCCCn1c(Nc2ccccc2)nc2ccccc21,-4.9,20,99,91,i,0.85,-3
CCOC(=O)c1c(C)c(C(=O)NCc2ccccn2)c(C)n1CC,-1.1,x,x,90,i,1.1,4
CCCn1cnc2c(c1=O)c1nc3ccccc3nc1n2CCc1ccccc1,-1.2,x,x,100,i,1,1
NC(=O)NCCCC(=O)OCC(=O)c1ccc2ccccc2c1,x,14,148,105,i,0.95,-1
COc1ccc(C2SCCN2C(=O)c2ccc([N+](=O)[O-])cc2)cc1 (stereo unspecified),x,-36,115,100,i,1,-13
COc1ccc(-n2c(C)nn(C)c2=O)c(OC)c1,-1.9,0,82,88,i,0.92,3
COc1ccc(CNC(=O)CSc2nc3ccc(N)cc3s2)cc1,-3.1,-17,94,107,i,0.97,7
CC(C)C(=O)N=C1SC2CS(=O)(=O)CC2N1Cc1ccc(Cl)cc1 (stereo unspecified),x,x,x,104,i,1,x
Cc1c2c(nc3ccccc13)CC(C)(C)CC2=O,x,x,x,99,i,1,7
CC(=O)N1CCN(CC(=O)Nc2ccccc2Sc2ccccc2)CC1,0.1,-55,96,102,i,0.86,-13
COc1ccc(C(=O)CCNc2ccc3c(c2)OCCO3)cc1,x,-356,85,99,i,0.88,-2
O=C1COc2ccc(C(=O)c3ccccc3)cc2CN1,-0.7,35,138,85,i,1,-4
CC1CCCC(NC(=O)Nc2cccs2)C1C (stereo unspecified),-4.4,-9,117,103,i,1.1,11
COC(=O)N/N=C/c1cn(CCCOc2ccc(C)cc2)c2ccccc12,0.3,0,113,111,i,0.99,3
Cc1sc2nc(CN(Cc3cccs3)C(=O)C3CC3)[nH]c(=O)c2c1C,-1.6,x,x,67,i,0.97,-2
Cc1nn(-c2ccc(F)cc2)c2c1cc(C#N)c1nc3ccccc3n12,-2.1,27,51,103,i,1.1,-3
COC(=O)[C@@H]1[C@@H](C)OC(=O)N[C@H]1c1ccccc1,-2.2,27,56,32,i,0.82,-5
O=C1NN(c2ccc(F)cc2)C(=O)/C1=C\C=C\c1ccco1,-1.0,-3,90,103,i,1,-5
CC1(C)CC(c2csc(N)n2)CCO1 (stereo unspecified),-4.2,x,x,104,i,1,-2
Cc1ccn(Cc2n[nH]c(=S)n2Cc2ccccc2)n1,-1.4,32,106,111,i,0.87,-3
COc1ccccc1-c1c(C(F)(F)F)oc2cc(OC(=O)c3ccccc3[N+](=O)[O-])ccc2c1=O,-2.4,-9,170,102,i,0.9,-5
CCOc1ccc(CCNC(=O)COC(=O)/C=C/c2ccc(OCC#N)c(OC)c2)cc1OCC,-1.5,-47,168,104,i,0.97,-1
Cn1c(N)c(C(=O)CSc2ccccn2)c(=O)n(C)c1=O,-1.6,-21,98,42,i,1,9
C/C(=N/OC(=O)c1ccc(C(F)(F)F)cc1)c1oc(C)nc1C,x,x,x,98,i,0.97,x
CCCn1c(N)c(N(C)C)c(=O)n(CC(=O)Nc2ccc(OC(F)(F)F)cc2)c1=O,-2.7,x,x,65,i,1.2,1
CC(C)c1[nH]nc2c1C1(CCN(Cc3ccccc3)CC1)C(C#N)=C(N)O2,-1.7,x,x,107,i,0.9,-3
COC(=O)COc1ccc(S(=O)(=O)Nc2ccc(NC(C)=O)cc2)cc1C,-0.1,21,69,64,i,0.94,-6
CC(C)CN1CN(S(=O)(=O)c2cccs2)c2nc3ccccc3nc21,0.2,0,71,100,i,0.98,-6
Nc1ccc(N2CCN(C(=O)c3ccco3)CC2)cc1,-4.1,33,46,88,i,0.79,-1
O=C(CN1CCC(c2nc3ccccc3s2)CC1)NCc1ccccc1,-1.4,38,72,170,i,1,-4
COc1cccc(Nc2ncnc3c2cnn3C)c1,-0.3,-15,130,83,i,0.91,-7
O=C(CNC(=O)c1ccccc1O)N/N=C/c1ccccn1,x,-145,121,124,i,0.95,-2
Cc1ccc(NCc2nnc(SCC(=O)OC3CCCCC3)o2)c(C)c1,-1.4,18,62,104,i,0.95,2
COc1ccc(-n2c(=O)cc(N3CC(C)OC(C)C3)[nH]c2=O)cc1 (stereo unspecified),-1.5,40,118,72,i,0.99,4
C=CCn1c(C)cc(C2=NNC(=NCC)SC2)c1C,0.3,-16,150,98,i,0.88,-17
O=S(=O)(c1ccccc1)c1nc(-c2ccco2)oc1NCCN1CCOCC1,0.1,0,103,107,i,1.1,-10
Cc1c(C(=O)O)sc2ncn(C)c(=O)c12,6.5,-4,130,96,i,0.85,0
COC1CCCN(Cc2nc(Cc3ccccc3F)no2)C1 (stereo unspecified),x,x,x,105,i,1.1,-7
Cc1cc(OC(C(=O)O)c2ccccc2)c2c(C)c(Cc3ccccc3)c(=O)oc2c1 (stereo unspecified),x,x,x,105,i,0.93,x
COc1ccc(N2CCN(C(c3ccccc3OC)c3nnnn3C3CCCC3)CC2)cc1 (stereo unspecified),-2.2,x,x,95,i,0.87,5
CCOC(=O)N1CCN(C(=O)CCSc2ccc(Cl)cc2)CC1,-3.4,-186,67,106,i,0.86,2
COCCOc1ccc(C(F)(F)F)cc1NC(=O)c1ccccc1F,-1.1,-12,125,107,i,0.96,0
Cc1ccn2cc(CCNC(=O)Cc3cccs3)nc2c1,x,x,x,142,i,0.91,-3
CC(=O)C1C(c2ccc(F)cc2)NC(=O)NC1(O)C(F)(F)F (stereo unspecified),-0.1,45,120,101,x,x,4
O=S(=O)(Nc1ccc(N2CCCCC2)cc1)c1ccc(F)c(F)c1,-0.4,6,116,85,i,0.96,2
Cn1c(N2CCOCC2)nc2c1c(=O)n(Cc1ccc(Cl)cc1)c(=O)n2C,-2.6,11,126,x,i,1.1,-4
COC(=O)CNc1nc(-c2cccnc2)nc2ccccc12,-1.8,4,87,92,i,0.87,4
COc1ccc(-c2nc(CS(=O)CC(=O)NCc3ccco3)c(C)o2)cc1OC (stereo unspecified),-2.6,x,x,102,i,0.9,-5
O=C(c1ccc(F)cc1)N1C2CCC1CC(O)(c1ccccc1F)C2 (stereo unspecified),-2.2,x,x,100,i,0.98,3
O=C(Nc1cccnc1)c1ccc(NC(=O)c2ccco2)cc1,-2.0,16,150,101,i,1.1,-5
Cc1ccc(Nc2nc(N)c([N+](=O)[O-])c(NCc3ccccc3)n2)cc1,x,x,x,104,i,0.94,x
CC(=O)N(c1cccc(C)c1)S(=O)(=O)c1ccc(Cl)cc1,x,x,x,102,i,0.93,3

# Looked up by compound from the list above (2):
SMILES,GALR2 agonist,INS promoter inh,INS promoter inh cell count,RGS16-Gao,HSV augment,HSV augment primary fold,PKD1 inh
O=C(c1ccc(F)cc1)N1C2CCC1CC(O)(c1ccccc1F)C2 (stereo unspecified),-2.2,x,x,100,i,0.98,3
Cn1c(N2CCOCC2)nc2c1c(=O)n(Cc1ccc(Cl)cc1)c(=O)n2C,-2.6,11,126,x,i,1.1,-4

# Further records
SMILES,GALR2 agonist,INS promoter inh,INS promoter inh cell count,RGS16-Gao,HSV augment,HSV augment primary fold,PKD1 inh
O=C(NC1(C(F)(F)F)N=C(c2ccccc2)NC1=O)c1ccccc1F (stereo unspecified),-1.3,-18,93,110,i,1.1,-13
NC(=O)C1CCN(C(=S)NCc2ccc3c(c2)OCO3)CC1,x,x,x,102,i,1,-1
CCOC(=O)CC(NC(=O)c1cc2cccc(OC)c2oc1=O)c1cccc([N+](=O)[O-])c1 (stereo unspecified),0.7,-26,110,93,i,1.1,11
Cc1noc(/C=C/N(C)C)c1S(=O)(=O)N1CCCC(C(=O)NCc2cccs2)C1 (stereo unspecified),-1.7,x,x,104,i,0.88,0
CCc1nnc(NS(=O)(=O)c2ccc(N3C(=O)C4CC=C(Cl)CC4C3=O)cc2)s1 (stereo unspecified),-0.8,38,47,104,i,0.83,-4

# Screens as filed in PubChem BioAssay.
